Bioassay records deposited in PubChem BioAssay by Broad Institute.
FGF22 binding: binders of human FGF22 protein, primary screen, FGF22 synaptogenesis inhibitor project, biophysical, thermal shift, single point. Fibroblast growth factor 22 (Homo sapiens), Q9HCT0. recombinant FGF22 thermal shift, SYPRO orange fluorescence; percent of sucrose octasulfate shift, DMSO zero. calls only at 9.99 µM. actives 1.5% (n = 340,000). AID 651658, 2012;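 active = melting point raised past a set limit in the mean and every replicate; three in four hits are not shown here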
Target sequence (Q9HCT0 whole entry, looked up): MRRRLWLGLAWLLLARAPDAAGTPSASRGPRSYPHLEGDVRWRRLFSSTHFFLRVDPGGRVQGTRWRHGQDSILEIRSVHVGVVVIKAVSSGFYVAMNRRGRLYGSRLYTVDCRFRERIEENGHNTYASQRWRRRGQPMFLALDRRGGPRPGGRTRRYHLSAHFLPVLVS
MLL AF4-AF9 inh: inhibitors of AF4 peptide binding to AF9, primary screen, biochemical, AlphaScreen, biotin-AF4 peptide, FLAG-AF9, single point; Protein AF-9 (Homo sapiens), P42568; inhibition, % at 10 µM; actives 0.47% (n = 350,000);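 active = every replicate reaching a set inhibition limit, whatever the replicate mean, cut at about 25% in these data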;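 also: 0% = plate neutral control median and 100% = total signal loss; the record names both 10 and 1 µM as test concentration; the first replicate is given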
Target sequence (P42568 whole entry, looked up): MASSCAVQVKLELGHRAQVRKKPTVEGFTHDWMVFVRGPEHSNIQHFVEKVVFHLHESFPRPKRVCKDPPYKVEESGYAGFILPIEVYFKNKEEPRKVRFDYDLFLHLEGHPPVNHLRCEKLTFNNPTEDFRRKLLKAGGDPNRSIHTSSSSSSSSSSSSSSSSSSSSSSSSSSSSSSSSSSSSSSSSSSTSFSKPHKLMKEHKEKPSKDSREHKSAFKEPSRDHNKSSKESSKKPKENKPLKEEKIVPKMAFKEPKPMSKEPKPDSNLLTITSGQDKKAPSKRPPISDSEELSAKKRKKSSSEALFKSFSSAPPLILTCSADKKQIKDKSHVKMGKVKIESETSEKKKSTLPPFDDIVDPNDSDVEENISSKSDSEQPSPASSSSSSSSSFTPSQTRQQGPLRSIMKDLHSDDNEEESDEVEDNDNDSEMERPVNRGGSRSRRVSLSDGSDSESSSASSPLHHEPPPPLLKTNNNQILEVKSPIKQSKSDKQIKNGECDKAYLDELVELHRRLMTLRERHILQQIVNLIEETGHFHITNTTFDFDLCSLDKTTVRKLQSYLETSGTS
Ecoli rRNA inh: reduced GFP signal of wild-type E. coli, primary screen, bacterial rRNA inhibitor project, GFP/RFP fluorescence, OD600, single point. E. coli WT GFP vs humanized-ribosome RFP mutants, 24 h; stronger effect = lower value; DMSO median 0, no signal -100. GFP signal change (wild-type ribosome), % (no concentration beside the values). actives 1.6% (n = 350,000);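 active = significant combined selectivity score with lowered wild-type GFP, culture density cut under 30%, mutant RFP and density less affected; inactive = any of these conditions unmet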; also: one replicate is shown; some compounds called inactive have numbers as strong as hits
Ecoli rRNA inh OD600: also measured in Ecoli rRNA inh; calls as there; OD600 change, %; measured here: OD600 growth;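 optical density of the mix in the first replicate; 0 = DMSO median and -100 = no signal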
Ecoli rRNA inh RFP: also measured in Ecoli rRNA inh; calls as there; RFP signal change, %; measured here: RFP humanized mutant strains;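 first replicate; 0 = DMSO median and -100 = no signal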
Starred values were filed as active, the others as inactive; i = inactive; + = active, no number; & = joins results of further samples. Not all compounds are listed (hit frequency here may not be typical).

SMILES	FGF22 binding	MLL AF4-AF9 inh	Ecoli rRNA inh	Ecoli rRNA inh OD600	Ecoli rRNA inh RFP
C[C@H](CO)N1C[C@H](C)[C@@H](CN(C)C(=O)CN2CCOCC2)Oc2cc(Br)ccc2S1(=O)=O	i	1.8&-19	13&3	8&7	-0.9&-3.2
C[C@@H]1CN([C@H](C)CO)C(=O)c2cc(NC(=O)NC3CCCCC3)ccc2O[C@H]1CN(C)C	i	-0.3	0	4	1.0
CCCN(C)C[C@H]1Oc2ncc(-c3ccccc3F)cc2C(=O)N([C@@H](C)CO)C[C@@H]1C	i	2.6	1	17	-4.9
CO[C@H]1CN(C)C(=O)c2ccc(NC(=O)C3CCOCC3)cc2OC[C@H](C)N(Cc2nccs2)C[C@@H]1C	i	-0.2	2	1	-1.1
COc1ccc(S(=O)(=O)Nc2ccc3c(c2)C(=O)N([C@@H](C)CO)C[C@@H](C)[C@@H](CN(C)Cc2ccc(C(F)(F)F)cc2)OCCCC[C@H](C)O3)cc1	i	0.2	3	5	2.2
CCNC(=O)C1(C)CCCN(C(=O)c2ccc(C(F)(F)F)nc2C)C1 (centres undefined)	i	0.2	11	20	-1.2
C[C@@H]1CN([C@@H](C)CO)C(=O)CCCn2nncc2CO[C@H]1CN(C)C(=O)c1ccccc1	i	-15&-2.2&-1.5	5&2	7&8	-3.2&0.2
CN(C)C(=O)C[C@@H]1CC[C@@H]2[C@H](COC[C@H](O)CN2CC2CCOCC2)O1	i	-3.9	7	4	0.9
O=c1c(-c2ccco2)nc2ccccc2n1C(CCc1ccccc1)c1nc2ccccc2[nH]1 (centres undefined)	i	0.9	-13	0	24
CCS(=O)(=O)Nc1ccc2c(c1)C(=O)N(C)[C@@H]1CC[C@@H](CC(=O)NCc3ccc(OC)cc3)O[C@H]1CO2	i	-3.1	2	4	0.5
C[C@@H]1CN([C@H](C)CO)C(=O)c2cc(NC(=O)Nc3cccc4ccccc34)ccc2O[C@@H]1CN(C)C(=O)Nc1ccc2c(c1)OCO2	i	-2.3	4	1	-0.9
O=C(C[C@@H]1CC[C@@H]2[C@H](COC[C@H](O)CN2C(=O)c2ccccc2)O1)Nc1nccs1	i	-2.0	-1	-1	3.0
CSCCC(c1nc2ccccc2[nH]1)n1c(=O)c(-c2ccco2)nc2ccccc21 (centres undefined)	i	5.1	19	15	8.7
CO[C@@H]1CN(C)C(=O)c2cc(NC(=O)C3CCCC3)ccc2OC[C@@H](C)NC[C@H]1C	i	-2.9	1	7	0.1
Cc1ccc(S(=O)(=O)Nc2cccc3c2O[C@@H](CN(C)C(=O)NC2CCCCC2)[C@H](C)CN([C@H](C)CO)C3=O)cc1	i	-1.1	1	7	-0.9
C[C@@H]1CN([C@@H](C)CO)C(=O)c2c(c3ccccc3n2C)-c2ccccc2CO[C@@H]1CN(C)C(=O)[C@H](C)c1ccccc1	i	3.4	1	3	-3.2
Cc1ccc(S(=O)(=O)N2C[C@]3(O)C[C@@H]4C(=O)N(c5ccccc5)C(=O)[C@@H]4C[C@]3(OC(=O)NCC3CCCCC3)C2)cc1	+	-2.4	5	6	0.2
CN(C)c1ccc(CNC(=O)/C=C/[C@H]2O[C@@H](n3ccc(=O)[nH]c3=O)[C@H](O)[C@@H]2O)cc1	i	-7.4	-4	3	-2.5
C[C@H]1CCCCO[C@@H](CN(C)C(=O)Nc2ccc3c(c2)OCO3)[C@@H](C)CN([C@@H](C)CO)C(=O)c2cc(NS(=O)(=O)c3cn(C)cn3)ccc2O1	i	-2.0	0	0	-0.9
Cc1ccc(Cc2c(-c3ccc(Br)cc3)nc3cc(C)ccn23)cc1	i	2.8	0	2	0.0
C[C@@H]1CN([C@@H](C)CO)C(=O)c2cc(NS(=O)(=O)c3ccc(F)cc3)ccc2O[C@H]1CN(C)C(=O)NC1CCCCC1	i	-3.2	4	11	1.3
C[C@@H]1CCCCO[C@@H](CN(C)Cc2ccc(C(F)(F)F)cc2)[C@H](C)CN([C@H](C)CO)C(=O)c2cc(NS(=O)(=O)c3ccc(F)cc3)ccc2O1	i	1.2	-1	-12	1.8
O=C(C[C@H]1CC[C@@H]2[C@H](COC[C@H](O)CN2C(=O)Nc2ccc3c(c2)OCO3)O1)N1CCN(c2ccccc2)CC1	i	-1.1	-2	0	-2.1
C[C@H]1CN([C@@H](C)CO)C(=O)c2cc(NC(=O)C3CCCCC3)ccc2O[C@H]1CN(C)Cc1ccc(C(F)(F)F)cc1	i	1.2	-8	-16	3.6
C[C@@H]1CN([C@@H](C)CO)C(=O)c2cc(C3=CCCCC3)cnc2O[C@H]1CN(C)C(=O)c1ccc2c(c1)OCO2	i	3.9	-7	-7	3.7
C[C@@H]1CN([C@H](C)CO)C(=O)Cc2cc(NC(=O)Nc3ccc(C(F)(F)F)cc3)ccc2O[C@@H]1CN(C)C(=O)Nc1ccc2c(c1)OCO2	i	2.8	-8	-13	2.3
CO[C@@H]1CN(C)C(=O)c2cc(NC(=O)C3CCOCC3)ccc2OC[C@@H](C)N(C)C[C@@H]1C	i	-1.2	-1	1	-0.9
O=C(Cn1cc(COc2ccccc2C(F)(F)F)nn1)c1ccc(O)cc1	i	1.0	-5	-18	-6.6
COc1ccc(S(=O)(=O)Nc2cccc3c2O[C@H](CN(C)C(=O)Nc2ccc(F)cc2)[C@H](C)CN([C@H](C)CO)C3=O)cc1	i	5.5	1	5	-4.0
C[C@H](CO)N1C[C@H](C)[C@H](CN(C)Cc2ccc(Oc3ccccc3)cc2)OCc2cnnn2CCCC1=O	i	4.6	1	-13	3.8

Sorted by length of the SMILES (low to high): part of the list above.
SMILES	FGF22 binding	MLL AF4-AF9 inh	Ecoli rRNA inh	Ecoli rRNA inh OD600	Ecoli rRNA inh RFP
CCNC(=O)C1(C)CCCN(C(=O)c2ccc(C(F)(F)F)nc2C)C1 (centres undefined)	i	0.2	11	20	-1.2
CO[C@@H]1CN(C)C(=O)c2cc(NC(=O)C3CCCC3)ccc2OC[C@@H](C)NC[C@H]1C	i	-2.9	1	7	0.1
O=C(C[C@H]1CC[C@@H]2[C@H](COC[C@H](O)CN2C(=O)Nc2ccc3c(c2)OCO3)O1)N1CCN(c2ccccc2)CC1	i	-1.1	-2	0	-2.1

Returning to the listing with the five entries that preceded the break.
SMILES	FGF22 binding	MLL AF4-AF9 inh	Ecoli rRNA inh	Ecoli rRNA inh OD600	Ecoli rRNA inh RFP
C[C@@H]1CN([C@H](C)CO)C(=O)Cc2cc(NC(=O)Nc3ccc(C(F)(F)F)cc3)ccc2O[C@@H]1CN(C)C(=O)Nc1ccc2c(c1)OCO2	i	2.8	-8	-13	2.3
CO[C@@H]1CN(C)C(=O)c2cc(NC(=O)C3CCOCC3)ccc2OC[C@@H](C)N(C)C[C@@H]1C	i	-1.2	-1	1	-0.9
O=C(Cn1cc(COc2ccccc2C(F)(F)F)nn1)c1ccc(O)cc1	i	1.0	-5	-18	-6.6
COc1ccc(S(=O)(=O)Nc2cccc3c2O[C@H](CN(C)C(=O)Nc2ccc(F)cc2)[C@H](C)CN([C@H](C)CO)C3=O)cc1	i	5.5	1	5	-4.0
C[C@H](CO)N1C[C@H](C)[C@H](CN(C)Cc2ccc(Oc3ccccc3)cc2)OCc2cnnn2CCCC1=O	i	4.6	1	-13	3.8
O=C(CC1CC1)N1CC2(C1)[C@H](c1ccccc1)[C@H](CO)N2C(=O)c1cnccn1	+	-11	1	11	-0.2
O=C(C[C@H]1CC[C@H]2[C@@H](COC[C@@H](O)CN2Cc2cccc(C(F)(F)F)c2)O1)NCc1ccncc1	i	-1.3	0	1	4.1
CC(C)(C)c1ccc2cc(F)cc(F)c2n1	i	-4.9	11	5	-2.0
COc1cccc(-c2nc3nc(C)cc(C)n3c2NC2CCCC2)c1	i	0.1	11	13	2.4
CCCC#Cc1ccc2c(c1)O[C@@H](CN(C)Cc1ccccn1)[C@H](C)CN([C@@H](C)CO)S2(=O)=O	i	0.4	-39	-51	14
COc1ccc(-c2ccc(CN3C(C(C)C)C(=O)N(Cc4cn(CCC5OCCCO5)nn4)CCS3(=O)=O)cc2)cn1 (centres undefined)	i	1.7	-13	-7	1.6
Cc1ccc(-c2cnc3c(c2)C(=O)N([C@H](C)CO)C[C@H](C)[C@@H](CN(C)C(=O)CN(C)C)O3)cc1	i	-1.7	0	0	-2.3
O=C(NC(c1ccccc1)c1ccsc1)C1CCN(Cc2ccc(Cl)c(Cl)c2)CC1 (centres undefined)	i	1.2	3	20	1.7
CN1c2ccc(Br)cc2[C@@H]2[C@@H](CCN2C(=O)Cc2cccnc2)[C@@H]1CO	i	-6.7	-3	3	-4.7
Cc1ccccc1C(c1ncccc1C)N(C)C(=O)C1CCN(CCOc2ccc(Cl)cc2Cl)CC1 (centres undefined)	i	9.2	-60	-76	-18
C[C@@H]1CN([C@H](C)CO)C(=O)Cc2cc(NS(=O)(=O)c3ccccc3)ccc2O[C@@H]1CN(C)Cc1ccc(-c2ccccc2)cc1	i	-0.2	4	2	0.9
O=S(=O)(c1ccccc1)N1CC2(C1)[C@H](c1ccccc1)[C@H](CO)N2CCC(F)(F)F	i	0.3	-13	-25	1.9
CC(=O)C(=Cc1cccc(C#N)c1)C(=O)c1ccccc1	i	0.0	4	15	4.2
COc1ccc(S(=O)(=O)Nc2ccc3c(c2)C(=O)N([C@H](C)CO)C[C@@H](C)[C@@H](CN(C)Cc2ccncc2)OCCCC[C@H](C)O3)cc1	i	2.2	1	-17	-1.0
CC(C)S(=O)(=O)N1CCCC(c2cc(C(=O)NCc3cccnc3)no2)C1 (centres undefined)	i	-3.1	2	8	0.1
O=C(C[C@@H]1C=C[C@@H](NS(=O)(=O)c2ccc(F)cc2)[C@H](CO)O1)NCc1ccncn1	i	-2.1	0	-4	2.8
CCc1nc2c(OCC(=O)N3CCOCC3)cccn2c1N(C)C(=O)COc1ccccc1	i	1.1	3	8	-2.1
C[C@H]1CN([C@@H](C)CO)C(=O)c2cccc(NC(=O)Nc3ccc(F)cc3)c2O[C@H]1CN(C)Cc1ccc(C(=O)Nc2ccccc2N)cc1	i	1.4	-1	-3	-1.0
C[C@H]1CN([C@@H](C)CO)C(=O)c2cc(NC(=O)Nc3ccc(F)cc3)ccc2O[C@@H]1CN(C)Cc1ccc(Oc2ccccc2)cc1	i	0.1	7	3	4.5
O=C(C[C@@H]1C=C[C@@H](NC(=O)c2ccc(F)cc2)[C@H](CO)O1)NCCc1ccncc1	i	-1.0	3	6	-1.8
O=C(N[C@H]1CC[C@@H](CCn2cc(C3(O)CCCC3)nn2)O[C@H]1CO)C1CCCCC1	i	0.0	2	12	-1.4
CC(C)NC(=O)Nc1ccc2c(c1)C(=O)N([C@@H](C)CO)C[C@H](C)[C@H](CN(C)CC1CCCCC1)OCCCC[C@H](C)O2	i	-0.6	0	1	-1.8
O=C(C[C@H]1CC[C@H]2[C@@H](COC[C@H](O)CN2Cc2cccc(Cl)c2)O1)NCC1CCCCC1	i	-1.0	-29	-68	9.0
COc1ccc(NC(=O)N(C)C[C@@H]2Oc3ccc(NC(=O)CCN4CCOCC4)cc3C(=O)N([C@@H](C)CO)C[C@H]2C)cc1	i	-1.3	7	10	-1.2
CCCNC(=O)NC[C@H]1[C@H](c2ccc(C3=CCCC3)cc2)[C@@H](CO)N1C(=O)CC	i	-1.9	-1	-1	-1.6
COc1ccc(NC(=O)N(C)C[C@@H]2Oc3ccc(NS(=O)(=O)c4ccc(OC)cc4)cc3C(=O)N([C@H](C)CO)C[C@@H]2C)cc1	i	0.5	1	-1	2.6
C[C@@H]1CN([C@H](C)CO)C(=O)c2cc(-c3cccc(C#N)c3)cnc2O[C@H]1CN(C)C(=O)c1cnccn1	i	-1.4	10	11	-3.0
COCCNC(=O)C[C@@H]1C=C[C@@H](NC(=O)NC2CCCC2)[C@H](CO)O1	i	0.9	1	8	-0.8
CCCC#Cc1ccc2c(c1)O[C@@H](CN(C)Cc1cccnc1)[C@@H](C)CN([C@@H](C)CO)S2(=O)=O	i	8.9	-33	-63	20
O=C(O)[C@H]1[C@H](CO)[C@H]2Cn3c(cccc3=O)[C@H]2N1C(=O)NC1CCCC1	i	-0.8	4	10	1.9
COc1ccccc1C#Cc1ccc2c(c1)O[C@@H](CN(C)Cc1cncnc1)[C@@H](C)CN([C@@H](C)CO)S2(=O)=O	i	5.9	-5	-15	8.7
CO[C@H](CN(C)C(=O)c1ccccc1F)[C@H](C)CN([C@H](C)CO)S(=O)(=O)c1ccccc1	i	-28	-3	8	-4.1
COc1ccc(NC(=O)N2C[C@@H](O)COC[C@@H]3O[C@H](CC(=O)N4CCCCC4)CC[C@H]32)cc1	i	3.6	0	2	0.6
C[C@@H]1CCCCO[C@@H](CN(C)C(=O)Nc2ccc(C(F)(F)F)cc2)[C@@H](C)CN([C@H](C)CO)C(=O)c2cc(NC(=O)Nc3ccc4c(c3)OCO4)ccc2O1	i	-2.6	2	-14	-3.9
CCCNC(=O)C[C@H]1C[C@H]2c3cc(NC(=O)NC4CCCC4)ccc3O[C@H]2[C@@H](CO)O1	i	0.3	3	-3	0.3
